High-throughput results from PubChem.
HNF4A DNA FP: change in binding of human HNF4 alpha to DNA. HNF4a-FITC DNA binding, fluorescence polarization, 1 h. 0.3% of 360,000 active. activity change, % at 10 µM; in the data active means activity change above about 30%, passing the limit was not always enough;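 further: controls were the assay level and a saturating level of protein; the project sought stronger binding though the title names inhibitors; some compounds called inactive have numbers as strong as hits; positive values seem to mean higher polarization but the record does not say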
Target sequence (P41235 whole entry, looked up): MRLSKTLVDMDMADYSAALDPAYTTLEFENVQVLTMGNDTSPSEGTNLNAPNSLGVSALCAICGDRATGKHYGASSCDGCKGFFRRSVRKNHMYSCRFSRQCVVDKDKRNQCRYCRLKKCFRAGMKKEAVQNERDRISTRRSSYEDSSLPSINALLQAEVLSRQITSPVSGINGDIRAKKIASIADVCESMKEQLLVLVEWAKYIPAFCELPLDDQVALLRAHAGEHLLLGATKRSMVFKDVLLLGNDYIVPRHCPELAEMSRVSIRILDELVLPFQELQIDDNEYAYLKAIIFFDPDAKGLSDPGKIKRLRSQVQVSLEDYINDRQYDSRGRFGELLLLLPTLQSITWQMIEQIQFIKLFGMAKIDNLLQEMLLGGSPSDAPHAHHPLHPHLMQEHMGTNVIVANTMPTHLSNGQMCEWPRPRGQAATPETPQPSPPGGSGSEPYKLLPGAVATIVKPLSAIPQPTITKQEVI
ALR H2O2 inh: human ALR oxidase inhibition via reduced H2O2; P55789; purified ALR, DTT oxidation, H2O2 HRP-luminol luminescence; inhibition, % (test concentration not listed); AID 485317; 3.8% of 290,000 active;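 active means mean and each replicate at 75% or more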;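 further: stock transfer was 7.5 nL into about 7.5 µL; 0% = neutral wells and 100% = wells with inactivated enzyme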
Target sequence (P55789 whole entry, looked up): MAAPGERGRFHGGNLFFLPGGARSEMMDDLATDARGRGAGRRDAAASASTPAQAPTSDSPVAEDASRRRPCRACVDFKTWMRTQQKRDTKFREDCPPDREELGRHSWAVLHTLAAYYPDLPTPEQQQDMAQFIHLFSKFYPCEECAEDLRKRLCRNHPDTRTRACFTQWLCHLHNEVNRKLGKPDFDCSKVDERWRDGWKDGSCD
LANA-H2A inh: blocks KSHV LANA binding to histone H2A/H2B. cell-free LANA-H2A/H2B peptide, fluorescence polarization. inhibition, % (test concentration not listed). 0.6% of 320,000 active; in the data active means inhibition mostly above about 10%, no sharp cut-off; inactive means mostly below about 6.7%;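 further: stock transfer was 7.5 nL into about 10 µL; 0% = median of vehicle wells and 100% = median of positive control wells; one replicate is shown; the record names a cut of 25% in any replicate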
UCH37 DUB inh: inhibitors of human deubiquitinating enzyme UCH37. 0.33% of 330,000 active. Q9Y5K5. purified proteasome/UCH37, Ub-AMC cleavage fluorescence. AID 588478. inhibition, % (concentration not given with the values);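 active means mean of two replicates above 20%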;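 further: 0% = compound-free wells with enzyme and 100% = wells lacking proteasome; stock transfer was 100 nL into about 20 µL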
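Material: human UCH37 enzyme supplied as purified proteasome complex / Amount: 0.15 nM proteasome as dispensed / Buffer or medium: pH 7.4 Tris-HCl (50 mM) with ovalbumin, ATP-MgCl2, DTT / Times: preincubation 30 min, reaction 25 min, room temperature / Technique: AMC fluorescence from Ub-AMC cleavage, excitation 355 nm, emission 460 nm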
Beta2AR agonist: human beta-2 adrenergic receptor agonism by FAP; P07550; Am2.2-beta2AR cells, FAP receptor internalization, flow cytometry; reference of the scale not given here; response, % (concentration not given with the values); 0.43% of 340,000 active; AID 504454;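 active means response above a set limit, near 3 SD of response in nonfluorescent compounds, cut at about 42% in these data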;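 further: stock transfer was 100 nL into about 11 µL; a reference agonist was the positive control; negative values mostly stem from fluorescent compounds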
Target sequence (P07550 whole entry, looked up): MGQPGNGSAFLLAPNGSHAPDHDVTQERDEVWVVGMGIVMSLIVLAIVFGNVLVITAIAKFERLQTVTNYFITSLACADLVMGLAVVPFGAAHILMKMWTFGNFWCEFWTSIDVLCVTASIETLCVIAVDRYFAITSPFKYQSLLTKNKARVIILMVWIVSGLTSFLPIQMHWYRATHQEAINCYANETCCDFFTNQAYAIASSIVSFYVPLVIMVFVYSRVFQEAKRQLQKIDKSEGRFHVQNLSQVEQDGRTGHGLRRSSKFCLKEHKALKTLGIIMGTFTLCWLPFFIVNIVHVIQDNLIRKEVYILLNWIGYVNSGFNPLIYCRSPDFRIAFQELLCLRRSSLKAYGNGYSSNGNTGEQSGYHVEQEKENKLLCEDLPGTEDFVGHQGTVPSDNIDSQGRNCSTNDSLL
Ecoli growth: blocks Escherichia coli growth | OD600, 23 h; hits give low values | OD600 absorbance (concentration not given with the values) | 0.21% of 330,000 active | AID 1053175;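 active means OD600 absorbance below the run mean of sample wells minus 3.6 SD, in any replicate, cut at about 0.56 in these data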;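 further: stock transfer was 300 nL into about 60 µL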
FGF22 binding: FGF22 (human) thermal shift binding; calls only at 9.99 µM; recombinant FGF22 thermal shift, SYPRO orange fluorescence; percent of sucrose octasulfate shift, DMSO zero; 1.5% of 340,000 active; AID 651658;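 active means melting point raised past a set limit in the mean and every replicate; three in four hits are not shown here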
Active calls of the source: *; & = joins results of further samples. A portion of the library; rates above refer to the full screens.

Results for O=C(/C=C/c1ccc2c(c1)OCCCO2)c1ccccc1O ?
HNF4A DNA FP: 1.3; ALR H2O2 inh: 25; LANA-H2A inh: -3.2; UCH37 DUB inh: 2.3; Beta2AR agonist: -1; Ecoli growth: 0.63; FGF22 binding: inactive

What do the screens show for `O=c1[nH]n2c(-c3ccccc3)nc(O)c2c2ccccc12`?
HNF4A DNA FP: 1.6; ALR H2O2 inh: -5; LANA-H2A inh: -1.3; Beta2AR agonist: -10; FGF22 binding: inactive

How did CN(C(=O)c1cccc(S(=O)(=O)NCc2ccccc2)c1)C1CCCCC1 do in these assays?
HNF4A DNA FP: -1.0; LANA-H2A inh: 0.8; UCH37 DUB inh: 2.3; Beta2AR agonist: 4; Ecoli growth: 0.71; FGF22 binding: inactive

What do the screens show for `CCOC(=O)c1c(CN2CCCCC2)n(C)c2cc(Br)c(OC)cc12`?
HNF4A DNA FP: 1.4; ALR H2O2 inh: -5; LANA-H2A inh: 1.1; UCH37 DUB inh: 6.4; Beta2AR agonist: 9; Ecoli growth: 0.7

How did CCCCCCCC(=O)N/N=C/c1ccc([N+](=O)[O-])o1 do in these assays?
HNF4A DNA FP: -3.1; ALR H2O2 inh: -38; LANA-H2A inh: 1.9; Beta2AR agonist: -1; FGF22 binding: inactive

Results for CCc1cc(C(=O)c2ccc(OC)cc2)c(NC(=O)CCC(=O)O)s1 ?
HNF4A DNA FP: -0.9; LANA-H2A inh: -8.3; UCH37 DUB inh: 8.0; Beta2AR agonist: 10; Ecoli growth: 0.67; FGF22 binding: inactive

What do the screens show for `COc1ccc(-c2[nH]c(-c3ccc(C(=O)O)cc3)nc2-c2ccccc2)cc1`?
HNF4A DNA FP: 0.9; ALR H2O2 inh: 99*; LANA-H2A inh: 1.8; UCH37 DUB inh: inactive; Beta2AR agonist: -4; Ecoli growth: 0.68

Results for O=C(Nc1nc2c(s1)CCCC2)c1ccc(N2C(=O)CCC2=O)cc1 ?
HNF4A DNA FP: -2.4; ALR H2O2 inh: 97*; LANA-H2A inh: -1.3; UCH37 DUB inh: 5.2; Beta2AR agonist: -5; Ecoli growth: 0.69; FGF22 binding: inactive

Results for COc1cc(/C=C2\Oc3cc(O)ccc3C2=O)ccc1O ?
HNF4A DNA FP: 33; ALR H2O2 inh: 97*; LANA-H2A inh: -8.7; UCH37 DUB inh: -30; Beta2AR agonist: -85; Ecoli growth: 0.75; FGF22 binding: inactive

What do the screens show for `CCOC(=O)Nc1ccc2c(c1)nc(CN1CCOCC1)n2C`?
HNF4A DNA FP: -2.0; ALR H2O2 inh: -6; LANA-H2A inh: 2.7; UCH37 DUB inh: 1.2; Beta2AR agonist: -7; Ecoli growth: 0.75

What do the screens show for `CN(Cc1ccon1)C(=O)CCc1nnc(Cc2ccc(-c3ccccc3)cc2)o1`?
HNF4A DNA FP: -0.9; ALR H2O2 inh: -2; LANA-H2A inh: -2.1; UCH37 DUB inh: -1.0; Beta2AR agonist: -2; Ecoli growth: 0.69; FGF22 binding: inactive

How did Cc1ccc(OCC(=O)n2nc(C)cc2C)c(Br)c1 do in these assays?
HNF4A DNA FP: 5.0; ALR H2O2 inh: -3; LANA-H2A inh: -1.6; UCH37 DUB inh: 2.3; Beta2AR agonist: -1; Ecoli growth: 0.72; FGF22 binding: inactive

How did CC(=O)Oc1ccc2c(C)cc(=O)oc2c1C(=O)c1ccccc1 do in these assays?
HNF4A DNA FP: 2.2; ALR H2O2 inh: 12; LANA-H2A inh: -1.5; UCH37 DUB inh: -6.8; Beta2AR agonist: -40; Ecoli growth: 0.67; FGF22 binding: inactive

Results for O=C(O)c1ccc(N/N=C/c2ccc(OC(=O)c3cccc(Cl)c3)cc2)cc1 ?
HNF4A DNA FP: 2.8; ALR H2O2 inh: 4; LANA-H2A inh: 2.7; Beta2AR agonist: 8; FGF22 binding: inactive

How did CNC(=O)C1=C(C)Nc2nc3ccccc3n2C1c1ccc(F)cc1 (stereo unspecified) do in these assays?
HNF4A DNA FP: -2.6; ALR H2O2 inh: -10; LANA-H2A inh: 1.4; UCH37 DUB inh: -4.5; Beta2AR agonist: 4; Ecoli growth: 0.69; FGF22 binding: inactive

Results for CC1=C(C(=O)Nc2cccc(C(=O)NC3CCCC(C)C3C)c2)SCCO1 (stereo unspecified) ?
HNF4A DNA FP: 1.4; ALR H2O2 inh: -7; LANA-H2A inh: 0.9; UCH37 DUB inh: 3.1; Beta2AR agonist: 8; Ecoli growth: 0.66; FGF22 binding: inactive

Results for CC(=O)NC1=NN(C(C)=O)C(c2ccc(F)cc2)S1 (stereo unspecified) ?
HNF4A DNA FP: 2.8; ALR H2O2 inh: 4; LANA-H2A inh: 2.6; UCH37 DUB inh: 2.2; Beta2AR agonist: 1; Ecoli growth: 0.68; FGF22 binding: inactive

Results for Cc1cc(O)c(C(C)C)cc1N=Cc1ccccc1[N+](=O)[O-] ?
HNF4A DNA FP: 0.4; UCH37 DUB inh: 5.2; Beta2AR agonist: 1; Ecoli growth: 0.67; FGF22 binding: inactive

Results for Cc1ccc(NC(=O)c2ncn(CC(=O)N[C@H](C)c3cccc4ccccc34)n2)cc1C ?
HNF4A DNA FP: 1.3; UCH37 DUB inh: 3.6; Beta2AR agonist: 3; Ecoli growth: 0.73; FGF22 binding: inactive

What do the screens show for `O=C(NC(=O)c1ccccc1)Nc1ccccn1`?
HNF4A DNA FP: 11; ALR H2O2 inh: -2; LANA-H2A inh: -1.1; Beta2AR agonist: -13; FGF22 binding: inactive

Results for O=C(NCc1ccco1)c1nc2c(nnn2Cc2cccc(Cl)c2)c(=O)[nH]1 ?
HNF4A DNA FP: -0.2; ALR H2O2 inh: -2; LANA-H2A inh: -7.5; UCH37 DUB inh: 0.4; Beta2AR agonist: 2; Ecoli growth: 0.74

What do the screens show for `COc1ccc(S(=O)(=O)N2CCOCC2)cc1NC(=O)c1cccc(-n2cccc2)c1`?
HNF4A DNA FP: -32; ALR H2O2 inh: -1; LANA-H2A inh: -2.3; UCH37 DUB inh: 0.9; Beta2AR agonist: -2; Ecoli growth: 0.68; FGF22 binding: inactive

What do the screens show for `COc1cc(C(=O)N2CCN(C(=O)C3CCCO3)CC2)cc(OC)c1OC` (stereo unspecified)?
HNF4A DNA FP: 2.3; UCH37 DUB inh: 4.6; Beta2AR agonist: 12; Ecoli growth: 0.69; FGF22 binding: inactive

How did CC(C)(C)c1ccc(-c2nnc(SCC(=O)NCC3CCCO3)n2N)cc1 (stereo unspecified) do in these assays?
HNF4A DNA FP: 0.8; ALR H2O2 inh: -7; LANA-H2A inh: 3.4; UCH37 DUB inh: 3.2; Beta2AR agonist: 4; Ecoli growth: 0.7; FGF22 binding: inactive

How did COc1cccc(OCC(=O)Nc2ccccc2-c2ccccc2)c1 do in these assays?
HNF4A DNA FP: 2.0; ALR H2O2 inh: 0; LANA-H2A inh: 4.2; UCH37 DUB inh: 4.0; Beta2AR agonist: 6; Ecoli growth: 0.7

Results for Cn1c(-c2ccccc2)cc2c3no[n+]([O-])c3ccc21 ?
HNF4A DNA FP: 2.7; ALR H2O2 inh: 1; LANA-H2A inh: 4.5; UCH37 DUB inh: -1.1; Beta2AR agonist: 31; Ecoli growth: 0.7

Results for CCCCC(c1nnnn1CS(=O)(=O)c1ccc(C)cc1)N1CCN(c2ccccc2)CC1 (stereo unspecified) ?
HNF4A DNA FP: 1.3; ALR H2O2 inh: -3; LANA-H2A inh: -29; UCH37 DUB inh: 0.2; Beta2AR agonist: -10; Ecoli growth: 0.71

Results for Cc1ccccc1CC(=O)Nc1ccc(C(=O)N2CCCC2)cc1 ?
HNF4A DNA FP: 13; ALR H2O2 inh: -6; LANA-H2A inh: -1.5; UCH37 DUB inh: -2.8; Beta2AR agonist: -5; Ecoli growth: 0.69; FGF22 binding: inactive

Results for Cc1ccoc1C(=O)Nc1ccc(CC(=O)O)cc1 ?
HNF4A DNA FP: 1.3; ALR H2O2 inh: -7; LANA-H2A inh: 0.5; UCH37 DUB inh: 1.7; Beta2AR agonist: 0; Ecoli growth: 0.69

Results for CCC1CCCCN1CCCNC(=O)C1CCN(S(=O)(=O)N2CCCCC2)CC1 (stereo unspecified) ?
HNF4A DNA FP: -1.8; ALR H2O2 inh: -3; LANA-H2A inh: -3.0; UCH37 DUB inh: 5.6; Beta2AR agonist: -10; Ecoli growth: 0.7

What do the screens show for `Cc1ccc(NC(=O)CCNS(=O)(=O)c2ccc(Br)s2)cc1`?
HNF4A DNA FP: -3.0; ALR H2O2 inh: -3; LANA-H2A inh: 2.2; UCH37 DUB inh: 3.3; Beta2AR agonist: -10; Ecoli growth: 0.62; FGF22 binding: inactive

Results for O=C(COC(=O)c1ccc(O)cc1)Nc1cccc(S(=O)(=O)NC2=NCCCCC2)c1 ?
HNF4A DNA FP: -1.6; ALR H2O2 inh: -6; LANA-H2A inh: -1.4; UCH37 DUB inh: -2.3; Beta2AR agonist: 14; Ecoli growth: 0.65; FGF22 binding: inactive

Results for C/C=C/C=C/C(=O)OCC(=O)Nc1ccc(Cl)cc1 ?
HNF4A DNA FP: -0.6; ALR H2O2 inh: 4; LANA-H2A inh: -1.5; UCH37 DUB inh: 0.3; Beta2AR agonist: -1; Ecoli growth: 0.67; FGF22 binding: inactive

Results for Cc1ccc(NC(=O)COC(=O)c2cc(-c3cccs3)nn2-c2ccccc2)cc1[N+](=O)[O-] ?
HNF4A DNA FP: -0.8; ALR H2O2 inh: -9; LANA-H2A inh: 1.2; UCH37 DUB inh: 5.0; Beta2AR agonist: 2; Ecoli growth: 0.72

Results for CNC(=S)N(CCc1c(C)[nH]c2ccc(C)cc12)Cc1ccc(OC)c(OC)c1 ?
HNF4A DNA FP: -1.4; LANA-H2A inh: -4.8; UCH37 DUB inh: 3.4; Beta2AR agonist: 3; Ecoli growth: 0.69; FGF22 binding: inactive

How did CC(C)(C)C(=O)CSc1nccc(=O)[nH]1 do in these assays?
HNF4A DNA FP: -0.9; ALR H2O2 inh: 0; LANA-H2A inh: 9.6; UCH37 DUB inh: -0.2; Beta2AR agonist: -1; Ecoli growth: 0.7; FGF22 binding: inactive

What do the screens show for `Cc1cc(C(=O)NCCN2CCCCC2C)n(-c2ccccc2)n1` (stereo unspecified)?
HNF4A DNA FP: -1.4; ALR H2O2 inh: -5; LANA-H2A inh: 6.1; UCH37 DUB inh: 6.4; Beta2AR agonist: -1; Ecoli growth: 0.78; FGF22 binding: inactive

How did Cc1ccc(SCc2ccc(C(=O)N3CCCCC3)cc2)cc1 do in these assays?
HNF4A DNA FP: -0.2; LANA-H2A inh: -2.3; UCH37 DUB inh: -1.5; Beta2AR agonist: -1; Ecoli growth: 0.65; FGF22 binding: inactive

Results for Cc1cc(Oc2nc3c(C)cccn3c(=O)c2/C=C(\C#N)S(=O)(=O)c2ccccc2)ccc1Cl ?
HNF4A DNA FP: 0.1; ALR H2O2 inh: -1; LANA-H2A inh: -4.5; UCH37 DUB inh: -9.4; Beta2AR agonist: 5; Ecoli growth: 0.72

What do the screens show for `CC1CCC(NC(=O)C2CCC(CNS(=O)(=O)c3cccc4nsnc34)CC2)CC1` (stereo unspecified)?
HNF4A DNA FP: -1.5; ALR H2O2 inh: -2; LANA-H2A inh: -4.0; UCH37 DUB inh: 6.0; Beta2AR agonist: -4; Ecoli growth: 0.71; FGF22 binding: inactive

How did CCc1ccc(NC(=O)C2CCN(S(=O)(=O)c3cccs3)CC2)cc1 do in these assays?
HNF4A DNA FP: 0.2; ALR H2O2 inh: -15; LANA-H2A inh: 2.9; UCH37 DUB inh: 2.8; Beta2AR agonist: 10; Ecoli growth: 0.61; FGF22 binding: inactive

What do the screens show for `CCCCNc1c(-c2ccc(SC3CCCCC3)cc2)nc2ccccn12`?
HNF4A DNA FP: 4.8&2.7; ALR H2O2 inh: 6; LANA-H2A inh: -2.4; UCH37 DUB inh: -347; Beta2AR agonist: 25; Ecoli growth: 0.69; FGF22 binding: inactive
